Source: PubChem BioAssay (National Center for Advancing Translational Sciences (NCATS))
HSD17B inh: qHTS Assay for Inhibitors of HSD17B4, hydroxysteroid (17-beta) dehydrogenase 4; 3-hydroxyacyl-CoA dehydrogenase type-2 (Homo sapiens), Q99714; recombinant HSD17B10, NADH fluorescence kinetic; many of its hits are not listed in these tables; Potency, µM (highest dose often 57.1 µM), for inactives: at the highest dose activity change, negative = inhibition, most hits filed as inhibitors; 75,000 compounds, 7.6% hits; active = well fitted inhibition curve with a large enough effect; inconclusive = small, poorly fitted or top-dose-only effect; inactive = no such curve, though single readings can be large or run the other way;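 also: the protocol describes HADH2 (HSD17B10) and not the HSD17B4 of the title; nearly all actives have a fitted effect of over 70% in size; most hits overshoot -100% by far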
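20 nM HADH2, pH 9.0 Tris/Tween; cpd preinc 15 min RT; start w/ 1 mM NAD+ + 90 uM b-hydroxybutyryl-CoA; kinetic fluor ex360/em450 q30s x 4 min; delta last-first.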
Numbers without * were called inactive; u = inconclusive; [ ] = dose if it differs, or a comment. % is scaled to controls: 0 for no effect and ±100 for the full control effect; potency is read from the fitted curve at half-maximal effect.

| molecule | HSD17B inh |
| --- | --- |
| CCCOC(=O)c1ccc2c(c1)C(=O)N(c1ccccc1)C2=O | 3% |
| O=C(CSc1nnc(CNC(=O)c2ccccc2F)o1)Nc1ccc2c(c1)OCCO2 | 4% |
| Cc1cc(Nc2ccc(F)c(Cl)c2)n2nc(C)nc2n1 | 1% |
| CCCc1cc(N2CCCC(C(=O)NCC)C2)n2ncnc2n1 (stereo unspecified) | 12% |
| COC(=O)c1ccc(Cn2c(CN3CCOCC3)nc3ccccc3c2=O)o1 | 3% |
| Cc1cccc(-n2c(SCC(=O)N3CCCC3)nnc2-c2ccccn2)c1C | 2% |
| N#Cc1ccc(CN2CC[C@@]3(CCCN(C(=O)c4cnccn4)C3)C2)cc1 | 3% |
| CCn1cc(C(=O)N2CC(C)CC(C)C2)c(=O)c2cc(S(=O)(=O)N(C)C)ccc21 (stereo unspecified) | 2% |
| C=CCn1c(=O)n(CC=C)c(=O)n(CC=C)c1=O | -4% |
| Cc1ccc2cc(C(c3nnnn3CC3CCCO3)N3CCCC4(CCCCC4)C3)c(=O)[nH]c2c1 (stereo unspecified) | 10% |
| CCn1c(=O)c(-[n+]2ccccc2)c(O)c2ccccc21 | -16% |
| CCCc1cc(=O)[nH]c(SCC(=O)N(CC(C)C)C2CCS(=O)(=O)C2)n1 (stereo unspecified) | 0% |
| CC(=O)Nc1sc2c(c1C#N)CC(C)(C)NC2(C)C | 7% |
| CCc1ccc2[nH]c(=O)c(CN(CCN3CCOCC3)C(=O)Nc3ccccc3F)cc2c1 | -10% |
| CCc1nc(Nc2ccncc2)c2oc3ccccc3c2n1 | 25µM* |

(continued)
| molecule | HSD17B inh |
| --- | --- |
| COC(=O)c1ccc(C(/C=C/[C@@H](C)C(=O)N(C)C)NC(=O)OCc2ccccc2)cc1 (stereo partly specified) | -4% |
| O=C(NCCCNCc1ccccc1)c1ccncc1 | 11% |
| Cn1cccc1Cc1nnc(SCC(=O)N2CCCCCC2)n1-c1ccc(F)cc1 | 13% |
| Cc1cccc(N(C)c2cc(C)nc3nc(C)nn23)c1 | 5% |
| CC(C)N(CCNC(=O)c1ccc(-n2c(=O)c(=O)[nH]c3ccccc32)cc1)C(C)C | 4% |
| N#Cc1c2c(c(N3CCN(c4ccccn4)CC3)n3c1nc1ccccc13)CCC2 | -5% |
| O=C(O)c1ccc(OC(F)(F)C(F)C(F)(F)F)cc1 (stereo unspecified) | u |
| Cc1cc2cc(CN(C(=O)C3CC3)C3CCCC3)c3nnnn3c2cc1C | 1% |
| O=C(NCc1ccccn1)[C@@H]1C[C@H]1[C@@H](NP(=O)(c1ccccc1)c1ccccc1)c1ccccc1 | 0% |
| CCCS(=O)(=O)N1CCN(C(=O)COc2ccc(-c3ccccc3)cc2)CC1 | -7% |
| CC(=O)OCN(C#N)c1nc(N(C)C)nc(N(C)C)n1 | 4% |
| Cc1ccccc1OCC(=O)Nc1ccccc1CO | -2% |
| COc1cc(C(C#N)N2CCCCC2)ccc1O (stereo unspecified) | -6% |
| CC1(C)c2ssc(=S)c2-c2ccccc2N1C(=O)c1ccco1 | 0% |
| O=C(Cc1ccccc1)Nc1ccc(NC(=O)c2ccco2)nc1 | -1% |

Next section
| molecule | HSD17B inh |
| --- | --- |
| CSc1ccccc1NC(=O)c1cccs1 | -9% |
| COc1ncnc2c1N[C@@](C)(O)c1c(F)c(F)c(F)c(F)c1S2 | u |
| CC(=O)Nc1ccc(NC(=O)CSc2nccn2Cc2ccccc2)cc1 | -3% |
| Cc1oc(-c2ccc(Cl)cc2)nc1CN1CCC(C(=O)N2CCc3ccccc3C2)CC1 | 0% |
| Cc1ccc(C2CC(c3ccccc3Cl)n3nc(N)nc3N2)cc1 (stereo unspecified) | 0% |
| COc1ccccc1NC(=O)Nc1ccnn1Cc1cccs1 | 5% |
| CCn1cc(C(=O)N2CCN(Cc3ccc4c(c3)OCO4)CC2)c2cc(OC)c(OC)cc2c1=O | 1% |
| O=C(NCc1nc2ccccc2[nH]1)c1ccc(Cl)c(S(=O)(=O)N2CCCC2)c1 | -17% |
| CCn1c(C)c(CCC(=O)O)c(=O)n2nc(-c3ccccc3OC)cc12 | 25µM* |
| CCOC(=O)COc1ccc(-c2nnc(-c3ccccc3)o2)cc1 | 102%[activator] |
| N#C/C(=C\c1ccc(O)c(O)c1)C(=O)c1ccc(O)c(O)c1 | -17% |
| Cc1ccc2nc(SCC(=O)Nc3cc(C)on3)[nH]c2c1 | 1% |
| O=c1c(-c2ccccc2)nc2cncnc2n1Cc1ccccc1 | u |
| CN(CCOc1ccc(Cl)cc1)c1ccc(S(=O)(=O)N2CCCCC2)cn1 | 32µM* |
| COc1ccc(CNc2nc(-c3ccc4c(c3)OCO4)nc3ccccc23)c(OC)c1 | -1% |

Following part
| molecule | HSD17B inh |
| --- | --- |
| CCC1=[N+]([O-])C(C)(/C(C)=N\O)N(O)C1(C)C (stereo unspecified) | -4% |
| COc1ccccc1CNc1ccnc(-c2cccc(C#N)c2)n1 | -8% |
| CCN(CC)CCNC(=O)CS(=O)Cc1nc(-c2ccc(Cl)cc2)oc1C (stereo unspecified) | -7% |
| CCNC(=O)NC(=O)COC(=O)CCCSc1nc2ccccc2[nH]1 | -7% |
| COC(=O)[C@@H]1C[C@H]2CC[C@H](O)C[C@H]2N1Cc1ccc(N2CCOCC2)cc1 | 3% |
| COc1cc(CC(=O)O)c(C(C)=O)cc1OC | 0% |
| COc1ccc2c(c1)c1ccccc1n2C | 25µM* |
| Nc1nnc(SCc2cccnc2)s1 | 2% |
| Cc1cc(C)cc(NC(=O)NCc2nnc(SCc3ccccc3)n2C)c1 | -10% |
| COC(=O)N1CCC2(CC1)CCN(c1ccccn1)CC2 | u |
| O=C(Cn1nc(C(F)(F)F)c2c1CCCC2)NCCN1CCOCC1 | -5% |
| CN(C)CC(CN(C)C)c1ccccn1 | 2%[11.4 µM] |
| O=C(c1cc2ccccc2oc1=O)N(Cc1ccc2c(c1)OCO2)Cc1ccco1 | -4% |
| CCc1nc(N)nc2c1C(=O)CC(C)(C)C2 | 1% |
| N#Cc1ccc(Oc2ccc(C(N)=O)cc2)cc1C#N | 0% |

In the list so far, two have a CF3 group:
| molecule | HSD17B inh |
| --- | --- |
| O=C(O)c1ccc(OC(F)(F)C(F)C(F)(F)F)cc1 (stereo unspecified) | u |
| O=C(Cn1nc(C(F)(F)F)c2c1CCCC2)NCCN1CCOCC1 | -5% |

Next records follow.
| molecule | HSD17B inh |
| --- | --- |
| Cc1c(C(=O)NN2CCOCC2)nn(-c2ccc(Cl)cc2Cl)c1-c1ccc(I)cc1 | -1% |
| CS(=O)(=O)N1CCC(C(=O)NCc2ccco2)CC1 | -3% |
| COCCn1c(=O)c(C)nc2cnc(OC)nc21 | 6% |
| CCCCCCOC(=O)C(C#N)c1nc2ccccc2nc1N1CCCCC1 (stereo unspecified) | 34%[activator] |
| CS(=O)(=O)N(CC(=O)N1CCCCC1)C1CCCCC1 | -1% |
| O=C(NCc1cccs1)c1cnn2cccnc12 | 32µM* |
| O=C(Nc1nccs1)C1C2/C=C\CCCCC21 (stereo unspecified) | -6% |
| O=C(NCCc1cccc(F)c1)[C@@H]1CSC2c3ccccc3C(=O)N21 (stereo partly specified) | -3% |
| OCC1(CO)COC2(CCCC2)N1 | 5% |
| C=CCn1c(SCC(=O)c2ccccc2)nnc1-c1cc2ccccc2o1 | -2% |
| CCOC(=O)C(CCOc1cccc(CC)c1)C(=O)OCC | -6% |
| COc1cc(NS(C)(=O)=O)ccc1Cc1c2ccccc2nc2ccccc12 | -27% |
| CCc1ncc(CO)n1Cc1cccc2ccccc12 | 3%[11.4 µM] |
| CCCn1c(N)c(C(=O)CSc2nnc(Cc3ccccc3)o2)c(=O)n(C)c1=O | 12% |
| O=c1[nH]c(CSc2ncc(-c3ccc(F)cc3)n2Cc2ccco2)nc2ccccc12 | u |

(cont.)
Molecule | HSD17B inh
CCOc1ccc(N(CC(=O)OC)S(=O)(=O)c2c(C)noc2C)cc1 | 3%
COc1ccccc1N1CCN(C(=O)c2cc(-c3ccc(Br)cc3)on2)CC1 | 14%
NCCc1nnc(SCc2ccccc2)o1 | 13%
CC(=O)NCCOc1c(C)cc(S(N)(=O)=O)cc1C | 3%
Cc1ccc(CNc2ccc3c(c2)ncn3C)cc1 | 25µM*
Cc1ccc(NC(=O)c2cccc(N(C)C)c2)cc1NC(=O)c1ccc(O)cc1 | 32µM*
CCOc1ccccc1NC(=O)CCC(=O)Nc1ccc2nc(N3CCN(C)CC3)cc(C)c2c1 | 25µM*
Cc1cc(-n2c(C)cc(C(=O)CSc3nc4ccccc4c(=O)n3Cc3ccco3)c2C)no1 | -5%
O=C(CSc1nnnn1C1CC2CCC1C2)Nc1ccnc2ccccc12 (stereo unspecified) | 3%
CC(C)S | 2%

Next part.
Molecule | HSD17B inh
COc1ccc(Cn2nnnc2C(c2cc3cc(C)cc(C)c3[nH]c2=O)N2CCOCC2)cc1 (stereo unspecified) | 32µM*
COc1ccc(C(=O)N2CCC(C(=O)Nc3ccc(OC)c(OC)c3)CC2)cc1 | 5%
Cc1ccc(NC(=O)CSc2nnc(-c3ccncc3)n2N)cc1C | 1%
O=C(NCCOc1ccccc1)c1n[nH]c(=O)c2ccccc12 | 8%
c1ccc(-c2nnc(CSc3nnc(-c4ccncc4)n3Cc3ccco3)o2)cc1 | -1%
O=C(CSc1nnc2ccccn12)c1ccccc1 | -4%
N#Cc1c(-c2ccccc2)nc(N2CCCCCC2)[nH]c1=O | 2%
CN(Cc1ccccc1)C(=O)c1cccc(NC(=O)c2ccco2)c1 | 6%
COc1cccc(-c2ccc3ncnc(N(C)C)c3c2)c1 | -8%
O=C(Nc1ccccc1)C1CC=CCC1C(=O)OCC1CCCO1 (stereo unspecified) | 7%

Additional structures follow.
Molecule | HSD17B inh
COc1ccc(CC(C)N2CCN(Cc3ccccc3)CC2)c(OC)c1 (stereo unspecified) | 8%
CCn1c(SCc2nnc(-c3ccccc3)o2)nc2c1c(=O)n(C)c(=O)n2C | 10%
Nc1[nH]c(=O)nc2c1ncn2[C@H]1O[C@@H](CO)[C@@H](O)[C@@H]1O | 1%[11.4 µM]
Cc1ccc(C2=CSC3=NCCN23)c(C)c1 | 32µM*
CCC(OC(=O)c1nsc(Cl)c1Cl)C(=O)NCc1ccco1 (stereo unspecified) | 5%
O=C(O)c1cccc(S(=O)(=O)NCC2CCCO2)c1 (stereo unspecified) | 9%
c1ccc2sc(SCSc3nc4ccccc4s3)nc2c1 | -2%[11.4 µM]
COc1ccc(-c2cc(C(F)(F)F)nc(SCC(N)=O)n2)cc1 | 32µM*
CCSc1ncc(C#N)c(=O)[nH]1 | -2%
CC(OC(=O)c1nn(C)c(=O)c2ccccc12)C(=O)NCc1ccc2c(c1)OCO2 (stereo unspecified) | 15%

(cont.)
Molecule | HSD17B inh
CCN1CCN(c2ncc(C(=O)Nc3ccccc3C(=O)OC)c3ccccc23)CC1 | -10%
c1ccc(-c2noc(C34CC5CC(CC(C5)C3)C4)n2)nc1 | 19%
Cc1ccc(C)c(N(CC(N)=O)S(C)(=O)=O)c1 | 9%
Cc1nnc(SCC(=O)Nc2c(Cl)cccc2Cl)[nH]c1=O | 8%
CCC1=C2CC[C@H]3C(=O)NC(=O)[C@H]3[C@H]2[C@@]2(C)C(=O)N(CC3CC3)C(=O)N2C1=O | 2%
CC1(C)CC(=O)c2cnc(NCC3CCCO3)nc2C1 (stereo unspecified) | 4%
COc1ccc(S(=O)(=O)N(Cc2ccc(OC)c(OC)c2)Cc2ccco2)cc1 | -20%
CCCC(=O)c1c(NC(C)C)cc(C)oc1=O | -3%
C=CCOC(=O)C(C(C)=O)C(NC(=O)OC)c1cccc(F)c1 (stereo unspecified) | 1%[11.4 µM]
Cc1cc(C)nc(NC(=O)NS(=O)(=O)Nc2ccc(Br)cn2)n1 | -12%

In the list so far, four contain a COOH group.
Molecule | HSD17B inh
O=C(O)c1ccc(OC(F)(F)C(F)C(F)(F)F)cc1 (stereo unspecified) | u
CCn1c(C)c(CCC(=O)O)c(=O)n2nc(-c3ccccc3OC)cc12 | 25µM*
COc1cc(CC(=O)O)c(C(C)=O)cc1OC | 0%
O=C(O)c1cccc(S(=O)(=O)NCC2CCCO2)c1 (stereo unspecified) | 9%

Next part:
Molecule | HSD17B inh
O=C(NCCc1ccccc1)C1CCN(S(=O)(=O)c2ccc(-n3cnnn3)cc2)CC1 | 3%
CCn1c(COc2ccc(Cl)c(C)c2)nnc1SCC(=O)N1CCCC1 | -3%
O=C(NC1CCCCC1)C1CCCN(c2nnnn2-c2ccccc2)C1 (stereo unspecified) | 3%
COc1ccc(CNC2CCCCC2)cc1 | 8%
COc1ccccc1CNc1ccnc(-c2ccccc2CN(C)C)n1 | -7%
Cc1ccc(C2CC(=O)c3cnc(NC(=O)c4ccco4)nc3C2)cc1 (stereo unspecified) | -18%
Cc1nc(NCc2ccccc2)[nH]c(=O)c1CCC(C)C | 3%
Cc1ccc2cc(CN(Cc3ccco3)C(=O)c3cccs3)c(=O)[nH]c2c1 | 32µM*
O=C(CSc1ccc2nnc(-c3ccccc3)n2n1)N1CCCCC1 | u
O=C(NC1CCCc2ccccc21)C1CCN(C(=O)c2sccc2-n2cccc2)CC1 (stereo unspecified) | 5%

Next part:
Molecule | HSD17B inh
CCOC(=O)N1CCN(c2c(N3CC=C(c4ccccc4)CC3)c(=O)c2=O)CC1 | -2%
O=C(NCc1ccncc1)C1CCCN(S(=O)(=O)Cc2ccccc2)C1 (stereo unspecified) | 7%
CC(C)N(Cc1nc(-c2ccccc2)no1)C(=O)c1ccc(Br)o1 | 3%
CCCOc1nc2c(c(=O)n(C)c(=O)n2C)n1CCC | 10%
Cc1cccc2c1nc(-c1ccccc1)n1nnnc21 | 10%
CC1(C(=O)NCCN2CCOCC2)C=CCN1C(=O)c1ccccc1 (stereo unspecified) | -10%
CCCC(=O)Nc1ccc2c(c1)nc1n2CCOC1 | 10%

The list is partial; the hit share may differ from the screen's.
